NOMO-1 viab = STK33 inhibitor candidate reducing NOMO-1 cell viability. NOMO-1 AML viability, CellTiter-Glo luminescence, 72 h. inhibition, % (concentration not given with the values). hit rate 7.5% among 37,000. AID 2330;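 active = most replicates above 80%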;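 also: wells of about 30 µL received 25 nL stock; 0% = median of vehicle wells and 100% = reference inhibitor level; the first replicate is given; inactives centre near 10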
* = called active by the depositor. Only part of the results is shown, so the mix of outcomes need not match the whole.

canonical_smiles	NOMO-1 viab
Cc1noc(C)c1NC(=O)Nc1cccc2c1O[C@@H](CN(C)S(=O)(=O)c1cccs1)[C@H](C)CN([C@H](C)CO)C2=O	-9.0
CC1(C)CC(=O)c2c(O)cc(OCC(=O)c3ccccc3)cc2O1	-6.1
Cc1noc(C)c1NC(=O)N(C)C[C@@H]1Oc2ccc(NS(=O)(=O)c3cccs3)cc2CC(=O)N([C@H](C)CO)C[C@@H]1C	-29.7
COc1ccc(S(=O)(=O)N(C)C[C@@H]2Oc3ccc(NS(=O)(=O)c4c(C)noc4C)cc3CC(=O)N([C@H](C)CO)C[C@H]2C)cc1	12.6
COc1ccc(NC(=O)Nc2ccc3c(c2)CC(=O)N([C@H](C)CO)C[C@@H](C)[C@H](CN(C)C(=O)Nc2ccccc2)O3)cc1	-12.1
C[C@@H]1CN([C@H](C)CO)C(=O)c2cc(NC(=O)Cc3cn(C)c4ccccc34)ccc2O[C@H]1CN(C)C(=O)Nc1ccccc1	31.2
Cc1noc(C)c1NC(=O)N(C)C[C@H]1Oc2c(NS(=O)(=O)c3ccc(F)cc3)cccc2C(=O)N([C@H](C)CO)C[C@@H]1C	12.6
COc1ccc(NC(=O)Nc2cccc3c2O[C@@H](CN(C)C(=O)Nc2ccc(OC)cc2)[C@@H](C)CN([C@@H](C)CO)C3=O)cc1	29.7
COc1ccc(NC(=O)Nc2ccc3c(c2)CC(=O)N([C@@H](C)CO)C[C@H](C)[C@@H](CN(C)C(=O)Nc2ccc4c(c2)OCO4)O3)cc1	-0.8
C[C@@H]1CN([C@@H](C)CO)C(=O)c2cc(NC(=O)Nc3ccc4c(c3)OCO4)ccc2O[C@@H]1CN(C)S(=O)(=O)c1ccccc1	13.8
Cn1c(=NC(=O)c2ccc(F)cc2)sc2ccccc21	39.3
C[C@@H]1CN([C@H](C)CO)C(=O)c2cc(NC(=O)Cn3cnnn3)ccc2O[C@H]1CN(C)C(=O)Nc1ccccc1	-4.9

The list continues.
canonical_smiles	NOMO-1 viab
COc1cc(OC)cc(C(=O)Nc2ccc(OCC(=O)O)cc2)c1	15.7
CC(C)OC(=O)C(C)Sc1ncnc2scc(-c3ccc(Br)cc3)c12 (configuration not stated)	14.9
COc1ccccc1NC(=O)c1ccccc1NC(=O)COc1ccccc1C	18.2
C[C@@H]1CN([C@H](C)CO)C(=O)c2cc(NC(=O)Nc3ccccc3)ccc2O[C@H]1CN(C)S(=O)(=O)c1ccc(Cl)cc1	10.6
C[C@H]1CN([C@@H](C)CO)C(=O)Cc2cc(NC(=O)Cn3cnnn3)ccc2O[C@H]1CN(C)C(=O)Nc1ccccc1	5.9
C[C@@H]1CN([C@H](C)CO)C(=O)c2cccc(N(C)C)c2O[C@@H]1CN(C)C	-6.8
Cc1ccc(S(=O)(=O)N(C)C[C@@H]2OCCCC[C@@H](C)Oc3ccc(NC(=O)Nc4ccc5c(c4)OCO5)cc3C(=O)N([C@H](C)CO)C[C@@H]2C)cc1	11.9
O=C(COc1ccc([N+](=O)[O-])cc1)Nc1ccc(Cl)c(-c2nc3ccccc3s2)c1	20.9
C[C@@H]1CN([C@@H](C)CO)C(=O)c2cc(NS(C)(=O)=O)ccc2O[C@@H]1CN(C)Cc1ccc2c(c1)OCO2	-4.3
N#Cc1ccc(CSc2ccc(Cl)cc2)cc1	6.6
CCOC(=O)c1ccc(-n2c(C)cc(C=C3C(=O)NC(=S)NC3=O)c2C)cc1	121.0*
CCCN(C)C[C@@H]1OCCCC[C@@H](C)Oc2ccc(NC(=O)Nc3ccc(OC)cc3)cc2C(=O)N([C@H](C)CO)C[C@@H]1C	6.1

Going on with the list:
canonical_smiles	NOMO-1 viab
COc1ccc(NC(=O)Nc2ccc3c(c2)C(=O)N([C@H](C)CO)C[C@@H](C)[C@H](CN(C)C(=O)Nc2ccc4c(c2)OCO4)O3)cc1	20.1
CC(=O)Nc1ccccc1NC(=O)CN1C(=O)c2ccccc2C1=O	0.6
COc1cc([N+](=O)[O-])ccc1NC(=S)NCc1ccccn1	31.5
CC1(C)CC[C@]2(C(=O)O[C@@H]3O[C@H](CO)[C@@H](O)[C@H](O)[C@H]3O)CC[C@]3(C)C(=CCC4[C@@]5(C)C[C@@H](O)[C@H](O)[C@@](C)(COC(=O)c6cc(O)c(O)c(O)c6)C5[C@H](O)C[C@]43C)[C@@H]2C1 (some centres not stated)	108.7*
N#Cc1cccc(C#N)c1Oc1ccc(S(=O)(=O)NCc2ccco2)cc1	33.2
C[C@H]1CN([C@@H](C)CO)C(=O)c2cccc(NC(=O)Nc3ccc(F)cc3)c2O[C@H]1CN(C)C(=O)Nc1ccccc1	28.3
O=C(CCN1C(=O)C2C3C=CC(C4CC34)C2C1=O)Oc1cccc2cccnc12 (configuration not stated)	121.2*
Cc1cc(C)c2nc(-c3ccccn3)cc(C(=O)NCc3ccco3)c2c1	33.0
C[C@H](CO)N1C[C@H](C)[C@@H](CN(C)Cc2ccc(Oc3ccccc3)cc2)Oc2ccc(NC(=O)CCN3CCOCC3)cc2C1=O	0.3
COc1ccc(NC(=O)N(C)C[C@@H]2Oc3c(NC(=O)Nc4ccccc4)cccc3C(=O)N([C@H](C)CO)C[C@H]2C)cc1	9.7
Cc1coc(C)c1C(=O)CC1(O)C(=O)N(CCc2ccccc2)c2ccc(Cl)cc21 (configuration not stated)	88.0*
Cc1ccc(S(=O)(=O)N2C(=O)CCC2C(N)=O)cc1 (configuration not stated)	12.3

Later entries:
canonical_smiles	NOMO-1 viab
CC(CN1CCCCC1)NC(=O)c1cc(-c2ccccn2)nc2ccc(Cl)cc12 (configuration not stated)	24.1
C[C@H](CO)N1C[C@H](C)[C@H](CN(C)S(=O)(=O)c2cn(C)cn2)Oc2ccc(NC(=O)CCCCCC(=O)Nc3ccccc3N)cc2C1=O	18.6
COc1ccc(CN(C)C[C@H]2Oc3ccc(NC(=O)NC(C)C)cc3CC(=O)N([C@@H](C)CO)C[C@@H]2C)cc1	-7.1
O=C(CSc1nnc(-c2cnccn2)n1-c1ccccc1)Nc1ccc(Br)cc1	-8.8
COC(=O)c1c(NC(=O)COc2ccccc2C(C)C)sc2c1CCCC2	11.5
COc1ccc(S(=O)(=O)N(C)C[C@H]2Oc3c(NC(=O)Nc4ccc5c(c4)OCO5)cccc3C(=O)N([C@H](C)CO)C[C@@H]2C)cc1	22.3
C[C@@H]1CN([C@H](C)CO)C(=O)c2cc(NC(=O)Cc3ccccc3)ccc2O[C@@H]1CN(C)S(=O)(=O)c1ccccc1	4.6
CNC(=O)c1ccccc1Sc1ccccc1C(=O)NC	15.0
C[C@H]1CN([C@@H](C)CO)C(=O)c2cccc(NC(=O)Nc3ccc4c(c3)OCO4)c2O[C@H]1CN(C)S(=O)(=O)c1ccc(Cl)cc1	92.2*
C[C@H](CO)N1C[C@H](C)[C@H](CN(C)S(=O)(=O)c2ccc(F)cc2)Oc2c(NC(=O)Nc3ccc(F)cc3)cccc2C1=O	29.7
Cc1ccc2c(c1)c1nnc(SCCN3CCOCC3)nc1n2C	-4.7
O=C(NCc1ccccn1)c1cc(-c2ccccc2)on1	18.1

Continued:
canonical_smiles	NOMO-1 viab
COc1cccc(OC)c1C(=O)NCCCO	35.3
C[C@H](CO)N1C[C@H](C)[C@H](CN(C)Cc2ccc(C(F)(F)F)cc2)Oc2ccc(NC(=O)C3CCCCC3)cc2C1=O	30.1
C[C@H](CO)N1C[C@H](C)[C@@H](CN(C)Cc2ccc3c(c2)OCO3)Oc2c(NC(=O)c3cnccn3)cccc2C1=O	20.6
Cc1noc(C)c1S(=O)(=O)N(C)C[C@@H]1Oc2ccc(NS(C)(=O)=O)cc2C(=O)N([C@@H](C)CO)C[C@@H]1C	39.9
COc1ccc(C)cc1NC(=O)CSc1nc(SC)ns1	16.4
C[C@@H]1CN([C@@H](C)CO)C(=O)c2cccc(NC(=O)Nc3ccc(F)cc3)c2O[C@@H]1CN(C)Cc1ccc(Cl)c(Cl)c1	93.4*
C[C@@H]1CN([C@@H](C)CO)C(=O)Cc2cc(NS(=O)(=O)c3ccccc3)ccc2O[C@@H]1CN(C)Cc1ccncc1	-12.8
Cc1ccc(NC(=O)c2cc(NC(=O)C3CC=CCC3C(=O)O)ccc2N2CCOCC2)cc1Cl (configuration not stated)	-4.9
C[C@@H]1CN([C@H](C)CO)C(=O)c2cccc(NS(=O)(=O)c3ccc(Cl)cc3)c2O[C@@H]1CN(C)C(=O)NC1CCCCC1	42.5
C[C@@H]1CCCCO[C@@H](CN(C)Cc2ccncc2)[C@@H](C)CN([C@H](C)CO)C(=O)c2cc(NC(=O)NC3CCCCC3)ccc2O1	14.8
Cc1cc(C)c(NC(=O)CN(c2ccc(F)cc2)S(C)(=O)=O)c(C)c1	-3.5
C[C@@H]1CN([C@H](C)CO)C(=O)c2cc(NS(=O)(=O)c3ccc(F)cc3)ccc2O[C@@H]1CN(C)C(=O)Nc1ccc(F)cc1	-8.1

(more compounds)
canonical_smiles	NOMO-1 viab
C[C@@H]1CN([C@@H](C)CO)C(=O)c2cc(NS(=O)(=O)c3ccccc3)ccc2O[C@@H]1CN(C)Cc1ccc(Oc2ccccc2)cc1	117.7*
COc1ccc(-n2c(-c3cccc(OC)c3)csc2=NCc2cccnc2)cc1	42.7
Nc1nnc(SCc2nc3ccccc3n2Cc2ccccc2)s1	-10.3
C[C@@H]1CN([C@H](C)CO)C(=O)Cc2cc(NS(=O)(=O)c3cn(C)cn3)ccc2O[C@H]1CN(C)CC1CC1	-14.0
Cc1cc(Br)c(NC(=O)CSc2nnc(-c3ccc(Cl)cc3)n2C)cc1C	-5.5
Cc1noc(C)c1NC(=O)Nc1cccc2c1O[C@H](CN(C)Cc1ccc(C(=O)Nc3ccccc3N)cc1)[C@H](C)CN([C@H](C)CO)C2=O	23.5
C[C@@H]1CN([C@@H](C)CO)C(=O)c2cc(NC(=O)Nc3ccc4c(c3)OCO4)ccc2O[C@@H]1CN(C)C(=O)Nc1ccc2c(c1)OCO2	-2.4
Cn1c2ccccc2n2nc(CCC(=O)O)c(=O)nc12	8.2
S=c1[nH]nc(CSCc2cccc3ccccc23)n1C1CCCCC1	23.9
Nc1nc(-c2ccncc2)ncc1S(=O)(=O)Cc1ccco1	17.8
CC(C)(C)C(=O)N1CCN(c2nc3ccc(Cl)cc3s2)CC1	16.5
C[C@@H]1CN([C@H](C)CO)C(=O)c2cc(NC(=O)Nc3ccc4c(c3)OCO4)ccc2O[C@H]1CN(C)Cc1ccc(Oc2ccccc2)cc1	-2.3

The listing continues.
canonical_smiles	NOMO-1 viab
Cc1ccc(C(=O)NCCN2CCOCC2)cc1S(=O)(=O)N1CCCCC1	-25.3
COc1cccc(CC(=O)Nn2c(C)nc3ccccc3c2=O)c1	-4.5
C[C@H]1CN([C@@H](C)CO)C(=O)c2cc(NC(=O)Nc3ccccc3)ccc2O[C@H]1CN(C)C	4.0
COc1ccc(S(=O)(=O)N(C)C[C@@H]2Oc3c(NS(=O)(=O)c4cn(C)cn4)cccc3C(=O)N([C@H](C)CO)C[C@H]2C)cc1	8.5
C[C@@H]1CCCCO[C@@H](CN(C)C(=O)C2CCCCC2)[C@@H](C)CN([C@H](C)CO)C(=O)c2cc(NS(=O)(=O)c3ccc(F)cc3)ccc2O1	43.0
CC(C)(C)c1ccc(OCC(N)=NC(=O)c2ccc(OC(F)(F)F)cc2)cc1	135.5*
COc1ccc(S(=O)(=O)N(C)C[C@H]2Oc3ccc(NC(=O)C4CCCCC4)cc3C(=O)N([C@H](C)CO)C[C@H]2C)cc1	42.9
CN(c1cccc(NC(=O)c2ccc(CN3CCc4ccccc4C3)cc2)c1)S(C)(=O)=O	52.1
CC(=O)N(CN1C(=O)c2ccccc2C1=O)c1ccccc1C	9.1
COc1ccc(NC(=O)Nc2ccc3c(c2)C(=O)N([C@H](C)CO)C[C@@H](C)[C@@H](CN(C)Cc2ccc(Oc4ccccc4)cc2)O3)cc1	122.1*
CC1(C)Cc2nc(-c3ccccc3)nc(SCC(=O)Nc3ccc(Br)cc3)c2CO1	101.3*
COC1=CC(=O)OC1C(O)C(O)C(OC(C)=O)c1ccccc1 (configuration not stated)	10.4

5 compounds picked at random from those above:
canonical_smiles	NOMO-1 viab
COc1cccc(CC(=O)Nn2c(C)nc3ccccc3c2=O)c1	-4.5
COC1=CC(=O)OC1C(O)C(O)C(OC(C)=O)c1ccccc1 (configuration not stated)	10.4
CN(c1cccc(NC(=O)c2ccc(CN3CCc4ccccc4C3)cc2)c1)S(C)(=O)=O	52.1
COc1ccc(S(=O)(=O)N(C)C[C@@H]2Oc3c(NS(=O)(=O)c4cn(C)cn4)cccc3C(=O)N([C@H](C)CO)C[C@H]2C)cc1	8.5
COc1ccc(NC(=O)Nc2ccc3c(c2)C(=O)N([C@H](C)CO)C[C@@H](C)[C@@H](CN(C)Cc2ccc(Oc4ccccc4)cc2)O3)cc1	122.1*

(next part)
canonical_smiles	NOMO-1 viab
C[C@H]1CN([C@@H](C)CO)C(=O)Cc2cc(NS(=O)(=O)c3cccs3)ccc2O[C@H]1CN(C)S(=O)(=O)c1ccc(F)cc1	34.7
COc1ccc2nc(SCC(=O)N3CCCc4ccccc43)[nH]c2c1	6.9
C[C@@H]1CN([C@@H](C)CO)C(=O)c2cc(NC(=O)C3CC3)ccc2O[C@@H]1CN(C)C(=O)Nc1cccc2ccccc12	2.5
C[C@@H]1CN([C@@H](C)CO)C(=O)Cc2cc(NC(=O)Nc3ccccc3)ccc2O[C@@H]1CN(C)C(=O)Nc1ccc(C(F)(F)F)cc1	-9.9
COC(=O)c1ccccc1NC(=O)COc1ccccc1F	-11.8
Cc1noc(C)c1NC(=O)N(C)C[C@@H]1OCCCC[C@@H](C)Oc2ccc(NC(=O)Cc3ccccc3)cc2C(=O)N([C@H](C)CO)C[C@@H]1C	-16.4
C[C@H](CO)N1C[C@H](C)[C@H](CN(C)Cc2ccc3c(c2)OCO3)Oc2ccc(NC(=O)CCCN(C)C)cc2C1=O	7.7
Nc1nnnn1/N=C1/C(=O)Nc2ccc(Br)cc21	57.0
N#Cc1cc(C#N)c(SCCN2CCOCC2)nc1N	-8.0
